Bioassay records from PubChem BioAssay.
Vaccinia stage: Vaccinia orthopox stage-specific inhibition. Vaccinia-infected cells, mCherry/Venus stage reporter fluorescence; hits give low values; some inactives read as strong as hits. activity change (mCherry), % (test concentration not listed). 89,000 tested, 0.01% active;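 active = mCherry past -33% and 40 or more points under the early reporter, replicates agreeing; inconclusive = past -33% without that gap or agreement; tested in A549 cells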;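 also: scaled between vehicle wells and reference inhibitor wells; 23 nL library stock went into each well; one replicate is shown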
Vaccinia stage Venus: second read-out of Vaccinia stage, no call of its own (marks repeat the call); activity change (Venus), %; measured here: Venus reporter, other viral stage;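 negative = less Venus signal; first of two replicates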
* marks the source's active call; other numbers are inactive results; ? = inconclusive; . = no result given. Only part of the results is shown, so the mix of outcomes need not match the whole.

SMILES	Vaccinia stage	Vaccinia stage Venus
CN1CCN(C(=O)C[C@H]2CC[C@@H]3[C@H](COC[C@H](O)CN3C(=O)Nc3ccc(F)cc3)O2)CC1	12	12
C[C@H]1CCCCO[C@H](CN(C)C(=O)Nc2ccc(C(F)(F)F)cc2)[C@@H](C)CN([C@@H](C)CO)C(=O)c2cc(NC(=O)Nc3cccc4ccccc34)ccc2O1	10	6
C[C@H]1CN([C@@H](C)CO)S(=O)(=O)c2ccc(-c3cccc(C#N)c3)cc2O[C@H]1CN(C)C(=O)C1CC1	9	0
C[C@@H]1CN([C@H](C)CO)C(=O)c2cc(NS(=O)(=O)c3ccc(Cl)cc3)ccc2O[C@H]1CN(C)C	4	0
C[C@H](NC(=O)C[C@@H]1C[C@H]2c3cc(NC(=O)Nc4ccc(C(F)(F)F)cc4)ccc3O[C@H]2[C@H](CO)O1)c1ccccc1	?	.
COc1ccc(S(=O)(=O)Nc2ccc3c(c2)C(=O)N([C@H](C)CO)C[C@H](C)[C@H](CN(C)S(=O)(=O)c2cccs2)OCCCC[C@@H](C)O3)cc1	18	7
COc1ccc(NC(=O)Nc2ccc3c(c2)C(=O)N([C@@H](C)CO)C[C@@H](C)[C@H](CN(C)Cc2ccc4c(c2)OCO4)O3)cc1	-16	-7
C[C@@H]1CN([C@H](C)CO)C(=O)c2cccc(NC(=O)c3nc4ccccc4s3)c2O[C@H]1CN(C)S(=O)(=O)c1ccccc1	10	2
Cc1noc(C)c1S(=O)(=O)Nc1ccc2c(c1)C(=O)N([C@@H](C)CO)C[C@@H](C)[C@@H](CN(C)C(=O)Cc1ccccc1)OCCCC[C@@H](C)O2	-11	-11
O=C(c1cccc(F)c1)N1CC(=O)N2[C@H](C1)[C@@H](c1ccc(C3=CCCC3)cc1)[C@@H]2CO	-3	-3
COCC(=O)N1CC(=O)N2[C@H](CO)[C@H](c3ccc(Br)cc3)[C@H]2C1	9	-4
COc1cccc(-c2ccc3c(c2)[C@@H]2[C@@H](CCN2C(=O)c2ccccn2)[C@H](CO)N3)c1	5	-4
CO[C@H]1CN(C)C(=O)c2ccc(NC(=O)C3CC3)cc2OC[C@@H](C)N(C(=O)c2cnccn2)C[C@@H]1C	10	14
COc1ccc(C#Cc2ccc3c(c2)[C@@H]2[C@@H](CCN2C(=O)NC(C)C)[C@@H](CO)N3C)cc1	7	6
COc1ccccc1NC(=O)N[C@@H]1C=C[C@@H](CC(=O)N[C@H](C)c2ccccc2)O[C@@H]1CO	-8	0
O=C(Cc1ccncc1)Nc1ccc2c(c1)[C@H]1C[C@@H](CC(=O)NC3CCCCC3)O[C@@H](CO)[C@H]1O2	6	0
C[C@H](O)C#Cc1ccc2c(c1)O[C@@H](CN(C)Cc1cccnc1)[C@H](C)CN([C@@H](C)CO)S2(=O)=O	-11	-19
CC(C)C#Cc1ccc2c(c1)O[C@H](CN(C)C(=O)CC1CC1)[C@@H](C)CN([C@@H](C)CO)S2(=O)=O	?	.
C[C@H]1CN([C@@H](C)CO)S(=O)(=O)c2ccc(C3=CCCCC3)cc2O[C@@H]1CN(C)Cc1cncnc1	-24	-24
CO[C@@H]1CN(C)C(=O)c2cc(NS(=O)(=O)c3ccccc3C)ccc2OC[C@H](C)NC[C@H]1C	11	11
C[C@@H]1CN([C@@H](C)CO)S(=O)(=O)c2ccc(C3=CCCC3)cc2O[C@H]1CN(C)C(=O)Nc1ccc2c(c1)OCO2	-24	-26
O=S(=O)(c1cccc(F)c1)N1CC[C@@H]2[C@H](CO)Nc3ccc(Br)cc3[C@@H]21	?	.
C[C@H]1CN([C@@H](C)CO)C(=O)c2cc(NC(=O)CCC(F)(F)F)ccc2O[C@H]1CN(C)C(=O)Nc1ccccc1	4	10
C[C@@H]1CN([C@@H](C)CO)C(=O)c2cc(C3=CCCCC3)cnc2O[C@@H]1CN(C)Cc1ccccc1C(=O)O	9	1
Cc1noc(C)c1NC(=O)N(C)C[C@H]1Oc2ccc(NC(=O)CCN3CCOCC3)cc2CC(=O)N([C@H](C)CO)C[C@@H]1C	-12	2
CN1CCN(C(=O)C[C@@H]2CC[C@@H]3[C@H](COC[C@H](O)CN3CC3CCCCC3)O2)CC1	-11	-13
O=C(c1cnccn1)N1CC(=O)N2[C@H](CO)[C@@H](c3ccc(C#CC4CCCC4)cc3)[C@@H]2C1	-10	-4
CN1CCN(C(=O)C2=C[C@@H](c3ccccc3)C[C@@H](OCc3ccc(CO)cc3)O2)CC1	20	7
C[C@@H]1CN([C@@H](C)CO)C(=O)c2cc(NS(=O)(=O)c3ccc(F)cc3)ccc2O[C@H]1CN(C)Cc1ccc(C(=O)Nc2ccccc2N)cc1	54	26
COCC#Cc1ccc([C@H]2[C@@H](CO)N3CCCCN(C(=O)Nc4cc(F)ccc4F)C[C@H]23)cc1	-4	-6

Another view of five compounds above:
compound,Vaccinia stage,Vaccinia stage Venus
C[C@@H]1CN([C@H](C)CO)C(=O)c2cccc(NC(=O)c3nc4ccccc4s3)c2O[C@H]1CN(C)S(=O)(=O)c1ccccc1,10,2
Cc1noc(C)c1S(=O)(=O)Nc1ccc2c(c1)C(=O)N([C@@H](C)CO)C[C@@H](C)[C@@H](CN(C)C(=O)Cc1ccccc1)OCCCC[C@@H](C)O2,-11,-11
O=C(c1cccc(F)c1)N1CC(=O)N2[C@H](C1)[C@@H](c1ccc(C3=CCCC3)cc1)[C@@H]2CO,-3,-3
COCC(=O)N1CC(=O)N2[C@H](CO)[C@H](c3ccc(Br)cc3)[C@H]2C1,9,-4
COc1cccc(-c2ccc3c(c2)[C@@H]2[C@@H](CCN2C(=O)c2ccccn2)[C@H](CO)N3)c1,5,-4

Later entries.
SMILES	Vaccinia stage	Vaccinia stage Venus
COc1cccc(CN(C)C[C@@H]2OCc3ccccc3-c3c(n(C)c4ccccc34)C(=O)N([C@@H](C)CO)C[C@@H]2C)c1	?	.
COc1ccc(S(=O)(=O)N(C)C[C@H]2OCCCC[C@H](C)Oc3ccc(NC(=O)Cc4ccccc4)cc3C(=O)N([C@H](C)CO)C[C@@H]2C)cc1	5	15
C[C@@H]1CN([C@@H](C)CO)C(=O)c2cc(-c3cccnc3)cnc2O[C@@H]1CN(C)C(=O)C1CC1	30	8
C[C@@H]1CN([C@@H](C)CO)C(=O)c2cc(N(C)C)ccc2O[C@H]1CN(C)C	22	14
COCCNC(=O)C[C@@H]1CC[C@H]2[C@@H](COC[C@H](O)CN2Cc2cccc(-c3ccncc3)c2)O1	14	13
CN(C)C(=O)C[C@H]1CC[C@H]2[C@@H](COC[C@H](O)CN2C(=O)C2CCOCC2)O1	7	15
O=C(C[C@H]1CC[C@H]2[C@@H](COC[C@H](O)CN2S(=O)(=O)c2cccc(F)c2)O1)Nc1ccccc1	-3	-5
COc1ccc(CN(C)C[C@@H]2Oc3ccc(NS(=O)(=O)c4ccc(F)cc4)cc3C(=O)N([C@@H](C)CO)C[C@@H]2C)cc1	-4	-10
O=C(c1ccc(F)cc1)N1C[C@@H]2N[C@H](C1)C2c1ccc(/C=C/c2ccccc2)cc1 (stereo partly drawn)	?	-7
C[C@@H]1CN([C@@H](C)CO)C(=O)Cc2cc(NC(=O)c3ccncc3)ccc2O[C@@H]1CN(C)S(=O)(=O)c1cn(C)cn1	32	27
Cn1cnc(S(=O)(=O)N[C@@H]2C=C[C@H](CC(=O)N3CCN(c4ccccc4)CC3)O[C@H]2CO)c1	22	18
Cn1cnc(S(=O)(=O)N2CCCCN3[C@H](C2)[C@H](c2ccc(-c4cccc(F)c4)cc2)[C@@H]3CO)c1	?	.
COc1ccc(NC(=O)Nc2ccc3c(c2)CC(=O)N([C@@H](C)CO)C[C@@H](C)[C@@H](CN(C)S(=O)(=O)c2ccccc2)O3)cc1	-5	-1
COc1ccc(C[C@@H]2CCn3cc(nn3)COC[C@@H](C(C)C)NC2=O)cc1	15	8
C[C@H](CO)N1C[C@H](C)[C@H](CN(C)CC2CCCC2)OCc2cn(nn2)CCCC1=O	15	18
CCN1[C@H](C(=O)OC)[C@@H](CO)[C@@H]2Cn3c(ccc(-c4cccc(C(=O)N(C)C)c4)c3=O)[C@@H]21	2	7
CCCNC(=O)Nc1ccc2c(c1)OC[C@@H](C)N(S(C)(=O)=O)C[C@H](C)[C@H](OC)CN(C)C2=O	14	0
CC=Cc1ccc2n(c1=O)C[C@@H]1[C@@H](CO)[C@H](C(=O)OC)[C@H]2N1S(=O)(=O)c1cccc(C)c1 (mixture of isomers)	3	6
COc1ccccc1-c1ccc2n(c1=O)C[C@H]1[C@H](CO)[C@@H](C(=O)NCc3ccccc3Cl)N[C@@H]21	1	-5
CO[C@H]1CN(C)C(=O)c2cccc(C#N)c2OC[C@@H]2O[C@@H](CC[C@H]2OC)CCN(C)C(=O)[C@@H]1C	8	8
COc1ccc(-c2ccc([C@H]3[C@@H](C#N)N(C(=O)NC4CCCCC4)[C@@H]3CO)cc2)cc1	-16	-15
CO[C@H]1CN(C)C(=O)c2ccc(NC(=O)C3CC3)cc2OC[C@H](C)N(Cc2ccncc2)C[C@@H]1C	17	14
C[C@@H]1CCCCO[C@@H](CN(C)C(=O)Nc2ccc(F)cc2)[C@@H](C)CN([C@@H](C)CO)C(=O)c2cc(N(C)C)ccc2O1	-20	-13
COc1ccc(NC(=O)Nc2ccc3c(c2)C(=O)N([C@H](C)CO)C[C@H](C)[C@H](CN(C)C)O3)cc1	19	13
C[C@@H]1CCCCO[C@H](CN(C)C(=O)Nc2ccc(F)cc2)[C@@H](C)CN([C@@H](C)CO)C(=O)c2cc(NC(=O)c3ccncc3)ccc2O1	-2	-2
C[C@H](CO)N1C[C@H](C)[C@H](CN(C)C)Oc2ccc(NS(=O)(=O)c3cccs3)cc2C1=O	3	0
CO[C@@H]1CN(C)C(=O)c2ccc(NC(=O)C3CC3)cc2OC[C@H](C)NC[C@H]1C	-4	3
COCC(=O)N1CCCCN2[C@H](CO)[C@@H](c3ccc(-c4ccccc4)cc3)[C@@H]2C1	30	1
CCNC(=O)[C@H]1N[C@H]2c3ccc(-c4cccc(C(=O)N(C)C)c4)c(=O)n3C[C@H]2[C@@H]1CO	6	4
C[C@H]1CN([C@@H](C)CO)C(=O)CCCn2nncc2CO[C@H]1CN(C)C(=O)Nc1cccc(Oc2ccccn2)c1	3	2
COC(=O)C[C@H]1CC[C@@H]2[C@H](COc3ccc(NC(=O)c4cnccn4)cc3C(=O)N2C)O1	5	6
CO[C@H]1CC[C@@H]2CCN(C)C(=O)CCCN(C)C(=O)c3cc(C#N)ccc3OC[C@H]1O2	17	8
CCC(=O)Nc1ccc2c(c1)C(=O)N(C)C[C@@H](OC)[C@@H](C)CN(C(=O)c1ccc(F)cc1)[C@@H](C)CO2	0	8
CO[C@@H]1CN(C)C(=O)c2cc(NC(=O)CC(F)(F)F)ccc2OC[C@@H](C)N(C(=O)C2CCCC2)C[C@H]1C	0	5
Cc1ccc(S(=O)(=O)Nc2ccc3c(c2)C(=O)N([C@H](C)CO)C[C@@H](C)[C@H](CN(C)C(=O)NC2CCCCC2)OCCCC[C@@H](C)O3)cc1	?	.
COc1ccccc1CNC(=O)C[C@H]1C[C@@H]2c3cc(NC(=O)C4CCOCC4)ccc3O[C@@H]2[C@H](CO)O1	-4	-6
CCS(=O)(=O)NC[C@@H]1[C@@H](c2ccccc2)[C@@H](CO)N1CC1CC1	11	8
C[C@@H]1CN([C@H](C)CO)C(=O)c2cc(-c3ccc(C#N)cc3)cnc2O[C@@H]1CN(C)C(=O)c1cccnc1	8	12
CN1[C@@H]2Cn3c(ccc(/C=C/c4ccccc4)c3=O)[C@H]1[C@@H](C(=O)NC1Cc3ccccc3C1)[C@@H]2CO	?	.
CN(C)C(=O)c1ccc(-c2cccc(-c3nc(C(=O)NCc4ccccc4)cc4c3[C@@H](CCO)N([S@](=O)C(C)(C)C)C4)c2)cc1	-15	18
C[C@@H]1CN([C@@H](C)CO)C(=O)Cc2cc(NS(=O)(=O)c3ccc(Cl)cc3)ccc2O[C@H]1CN(C)CC1CCCCC1	?	.
NCC[C@H]1CC[C@H](NC(=O)c2ccccc2F)[C@@H](CO)O1	14	9
C[C@@H]1CN([C@@H](C)CO)C(=O)c2cccc(NS(=O)(=O)c3cn(C)cn3)c2O[C@@H]1CN(C)CC1CC1	20	11
C[C@@H]1CN([C@@H](C)CO)C(=O)c2ccccc2-c2ccccc2CO[C@@H]1CN(C)C(=O)CCN(C)C	17	-9
O=C(c1ccccc1F)N1C[C@@H]2[C@H](c3ccccc31)[C@@H](CO)N2C(=O)c1ccccc1	2	8
CN1C(=O)c2cc(NC(=O)Cc3ccccc3)ccc2OC[C@H]2O[C@H](CC(=O)O)CC[C@H]21	5	2
CC(C)NC(=O)Nc1ccc2c(c1)CC(=O)N([C@H](C)CO)C[C@H](C)[C@H](CN(C)S(=O)(=O)c1ccccc1)O2	12	14
CN1[C@H](CO)[C@@H]2c3ccccc3N(C(=O)Nc3cc(F)ccc3F)C[C@@H]21	18	9
CC(C)NC(=O)N[C@@H]1CC[C@H](CCN)O[C@@H]1CO	-2	-1
C[C@@H]1CN([C@H](C)CO)C(=O)Cc2cc(NC(=O)C3CCCCC3)ccc2O[C@@H]1CN(C)Cc1ccc(C(F)(F)F)cc1	?	.

Ordered by molecular weight (smallest number first): three of the compounds above
SMILES	Vaccinia stage	Vaccinia stage Venus
COc1ccc(NC(=O)Nc2ccc3c(c2)C(=O)N([C@H](C)CO)C[C@H](C)[C@H](CN(C)C)O3)cc1	19	13
COc1ccccc1CNC(=O)C[C@H]1C[C@@H]2c3cc(NC(=O)C4CCOCC4)ccc3O[C@@H]2[C@H](CO)O1	-4	-6
Cc1noc(C)c1NC(=O)N(C)C[C@H]1Oc2ccc(NC(=O)CCN3CCOCC3)cc2CC(=O)N([C@H](C)CO)C[C@@H]1C	-12	2
